Source: PubChem (ICCB-Longwood Screening Facility, Harvard Medical School)
GIV-Gai inh: blocks GIV peptide binding to rat Galpha-i3; Galpha-i3/FITC-GIV peptide fluorescence polarization, 90 min; stronger effect = lower value; scaled: aluminum fluoride 0%, vehicle 100%; AID 1224905; percent of control (FP), % (concentration not given with the values); P08753; 0.42% of 210,000 active;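 active = replicate mean at 85% of control or lower, very high polarization wells dropped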;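 note: wells of about 15 µL received 100 nL stock; the first replicate is given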
Target sequence (P08753 whole entry, looked up): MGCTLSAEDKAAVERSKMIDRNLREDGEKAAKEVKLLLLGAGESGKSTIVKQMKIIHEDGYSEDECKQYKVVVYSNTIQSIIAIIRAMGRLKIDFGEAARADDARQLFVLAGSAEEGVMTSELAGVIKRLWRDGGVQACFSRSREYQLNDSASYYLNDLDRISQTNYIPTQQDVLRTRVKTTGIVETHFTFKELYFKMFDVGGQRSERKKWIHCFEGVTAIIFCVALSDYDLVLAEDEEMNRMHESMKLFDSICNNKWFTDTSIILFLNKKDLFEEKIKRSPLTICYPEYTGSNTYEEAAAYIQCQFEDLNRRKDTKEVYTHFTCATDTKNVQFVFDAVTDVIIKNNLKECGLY
Numbers without * were called inactive.

GIV-Gai inh	Structure
95	COc1ccc(-n2ccc(=O)c(-c3nc(-c4ccc(OC)c(OC)c4)no3)n2)cc1
104	Cc1cc(NC(=O)CCc2nc(CSc3nc(-c4ccccc4)cs3)no2)no1
111	COc1ccc2cc(C(=O)NCc3ccccc3)c(=Nc3ccc(C(=O)O)cc3)oc2c1
103	CN(C)c1ncncc1N1CCC(C(=O)N2CCCCC2)CC1
104	O=C(Nc1ccc(F)cc1)c1cc(N2CCOCC2)nc2ccccc12
104	CCCC(=O)Nc1ccc(C(=O)N2CCC(C(=O)NCC3CCCO3)CC2)cc1 (stereo not given)
107	CCN(CC)C(=O)c1sc2nc(C)nc(N3CCC(C)CC3)c2c1C
101	COC(=O)c1ccc(C2Nc3c(C)cc(C)cc3[C@H]3OCC[C@@H]23)cc1 (stereo not given in full)
103	O=C(c1cccs1)N1CCc2c([nH]c3ccccc23)C1c1ccccc1 (stereo not given)
104	C=CCN(c1ccccc1)S(=O)(=O)c1ccc2[nH]cc(C(=O)N3CCC(C)CC3)c(=O)c2c1
107	COc1ccc(NC(=O)C2CCN(S(=O)(=O)c3ccc4[nH]c(=O)sc4c3)CC2)c(OC)c1
103	Cc1ccc(SCC(=O)Nc2nc3ccc(S(N)(=O)=O)cc3s2)cc1

The last two compounds of the section above open the next one:
GIV-Gai inh	Structure
107	COc1ccc(NC(=O)C2CCN(S(=O)(=O)c3ccc4[nH]c(=O)sc4c3)CC2)c(OC)c1
103	Cc1ccc(SCC(=O)Nc2nc3ccc(S(N)(=O)=O)cc3s2)cc1
114	Cc1ccc(C(=O)OC(C)CN2CCN(C3=NS(=O)(=O)c4ccccc43)CC2)cc1 (stereo not given)
109	COc1ccc2c(c1)-c1c(ssc1=S)C(C)(C)N2C(=O)CSc1nccn1C
100	Cc1ccc(CN2CCN(C3CCN(C(=O)NCCC(C)C)CC3)C2=O)cc1
107	Cn1c(CN2CCN(C(=O)NC3CCCCC3)CC2)nc2cc(C(=O)N3CCCC3)ccc21
103	CCOCCCNS(=O)(=O)c1cc(-c2cc(C)[nH]n2)sc1C
108	COC(=O)c1ccc(N2C(=O)/C(=C/c3ccc(OC)c(Br)c3)C=C2c2ccccc2)cc1
135	CN(CCc1noc(-c2ccc(C(=O)N3CCCC3)cc2)n1)C(=O)c1ccc(Br)cc1
106	COc1ccc(-c2cc(C(=O)Nc3c(C)n(C)n(-c4ccccc4)c3=O)c3ccccc3n2)cc1
113	Cc1ccc(CNC(=O)C2(C)CCCN(C(=O)Nc3ccc4c(c3)OCCO4)C2)cc1 (stereo not given)
110	COC(=O)c1ccc(NC(=O)C23CCC(C)(C(=O)O2)C3(C)C)cc1 (stereo not given)
106	O=C(c1ccc2ccnc(N3CCN(c4ccc(Cl)cc4)CC3)c2c1)N1CCCCC1
108	CC(C)c1cc(C2CCCN2C(=O)C2CCCC2)no1 (stereo not given)

Individual results from the results shown.
CCOCCCNS(=O)(=O)c1cc(-c2cc(C)[nH]n2)sc1C @ GIV-Gai inh: 103
CC(C)c1cc(C2CCCN2C(=O)C2CCCC2)no1 (stereo not given) @ GIV-Gai inh: 108
O=C(c1ccc2ccnc(N3CCN(c4ccc(Cl)cc4)CC3)c2c1)N1CCCCC1 @ GIV-Gai inh: 106
COC(=O)c1ccc(NC(=O)C23CCC(C)(C(=O)O2)C3(C)C)cc1 (stereo not given) @ GIV-Gai inh: 110
Cn1c(CN2CCN(C(=O)NC3CCCCC3)CC2)nc2cc(C(=O)N3CCCC3)ccc21 @ GIV-Gai inh: 107
COC(=O)c1ccc(N2C(=O)/C(=C/c3ccc(OC)c(Br)c3)C=C2c2ccccc2)cc1 @ GIV-Gai inh: 108

The list continues.
GIV-Gai inh	Structure
105	Cc1nc(N2CCCC2)c2c(C)c(C(=O)NC3CCCC3)sc2n1
118	CCOC(=O)C1=C(O)/C(=C\c2cccc(O)c2)SC1=Nc1cccc(Cl)c1
102	CC1(C)CC(=O)C(C(C2=C(O)CC(C)(C)CC2=O)c2ccc([N+](=O)[O-])o2)C(=O)C1 (stereo not given)
114	O=C(CNS(=O)(=O)Cc1ccccc1)NCc1cscn1
96	Cc1ccc(C(=O)N2CCC(Oc3cc(N(C)C)ncn3)C2)s1 (stereo not given)
103	CCOC(=O)c1cnc2ccccc2c1Nc1cccc(C(C)=O)c1
112	COc1ccc(C(=O)Nc2cc(C(=O)Nc3cccc(C(C)=O)c3)ccc2N2CC3CC(C2)c2cccc(=O)n2C3)cc1 (stereo not given)
114	Cc1ccc2c(c1)N(Cc1ccccc1)C(=O)CC(c1ccccc1)=N2
106	CC(=O)C12c3ccccc3C(c3ccccc31)C1C(=O)N(c3ccc(Br)cc3)C(=O)C12 (stereo not given)
98	COc1ccc(COC(=O)C2=C(C)NC3=C(C(=O)CCC3)C2c2ccc(OC(C)=O)c(OC)c2)cc1 (stereo not given)
111	COc1cc(NC(=O)c2ccc(N3CC4CC(C3)c3cccc(=O)n3C4)c(NC(=O)c3cccnc3)c2)cc(OC)c1OC (stereo not given)
106	COc1cc(Cl)c(Nc2cc(C(=O)O)c3ccccc3n2)c(OC)c1

The listing continues:
GIV-Gai inh	Structure
98	COc1ccc(NC(=O)C2CCN(c3cc(=O)n(C)c(=O)n3C)CC2)c(OC)c1
100	Cc1nn(-c2ccc3nnc(C)n3n2)c2c1C(c1cccc(Br)c1)CC(=O)N2 (stereo not given)
113	CCCC(=O)NC1C(OC(C)=O)OC(COC(C)=O)C(OC(C)=O)C1OC(C)=O (stereo not given)
104	CCC(=O)N(CCC1(c2ccccc2)CCOC(C)(C)C1)Cc1ccc(OC(C)C)cc1 (stereo not given)
98	O=C(NCc1ccc2c(c1)OCO2)c1cccc(Oc2cc(-c3ccccc3)ncn2)c1
104	O=C(COC(=O)c1ccc2c3c1C1C=CCC1CN3CC1CC=CC21)c1ccc([N+](=O)[O-])cc1 (stereo not given)
107	Cc1ccc(N=C(NOCc2c(C)ccc3ccccc23)c2nonc2N)cc1
103	c1ccc(-c2nnc(-c3cccnc3NCC3CCCO3)o2)cc1 (stereo not given)
122	C=CCOC(=O)C1=C(C)OC(N)=C(C#N)C1c1ccc(OC)cc1 (stereo not given)
110	OCCCOc1ccc2c(c1)C(=NO)c1cc(OCCCO)ccc1-2
102	Cc1ccc(NC(=O)c2ccc(=O)n(CC(=O)Nc3ccc(C(C)C)cc3)n2)cc1
102	CCCCN(C)c1ccc2nnc(CCc3nc(-c4cc(OC)cc(OC)c4)no3)n2n1

(listing goes on)
GIV-Gai inh	Structure
101	Cc1ccc(S(=O)(=O)NCc2ccc3c(c2)CCN3C(=O)c2ccc(F)cc2)cc1C
102	Cc1cccc(C(=O)N2CSC[C@@H]2C(=O)NCCc2cscn2)c1
107	COc1ccc2c(c1)NC1(CCN(C(=O)NC3CCCCC3)CC1)c1cccn1-2
106	O=c1oc(/C=C/c2cccs2)nc2sc3c(c12)CCCC3
98	CC(C)CC(=O)N1CCc2c(c(C(=O)N3CCCC(C(=O)NC4CC4)C3)nn2C)C1 (stereo not given)
103	Cc1nn(-c2nc3ccccc3n2C)c2c1C(c1ccsc1)CC(=O)N2 (stereo not given)
97	COc1ccc(NC(=O)N2CCCN(c3nc4cc(Br)ccc4n4cccc34)CC2)c(OC)c1
103	CCCCNC(=O)c1cccc(Oc2ccnc(-c3ccc(F)cc3)n2)c1
106	CCc1onc(C)c1C1CCCN1Cc1ccc(OC(C)C)c(OC)c1 (stereo not given)
105	COc1ccc(-n2c(/C=C/c3cccc(OC)c3OC)nc3ccccc3c2=O)cc1OC
100	COCCN1C(=O)c2ccccc2Sc2cc(NC(=O)C3CC(=O)N(c4ccccc4)C3)ccc21 (stereo not given)
108	CCOC(=O)Cc1csc(NC(=O)c2c(O)c3ccccc3n(CC(C)C)c2=O)n1

Some of these compounds in order of length of the SMILES, descending.
GIV-Gai inh	Structure
97	COc1ccc(NC(=O)N2CCCN(c3nc4cc(Br)ccc4n4cccc34)CC2)c(OC)c1
98	CC(C)CC(=O)N1CCc2c(c(C(=O)N3CCCC(C(=O)NC4CC4)C3)nn2C)C1 (stereo not given)
101	Cc1ccc(S(=O)(=O)NCc2ccc3c(c2)CCN3C(=O)c2ccc(F)cc2)cc1C
105	COc1ccc(-n2c(/C=C/c3cccc(OC)c3OC)nc3ccccc3c2=O)cc1OC
103	CCCCNC(=O)c1cccc(Oc2ccnc(-c3ccc(F)cc3)n2)c1
106	CCc1onc(C)c1C1CCCN1Cc1ccc(OC(C)C)c(OC)c1 (stereo not given)
106	O=c1oc(/C=C/c2cccs2)nc2sc3c(c12)CCCC3

By substructure: the compounds so far with fluorine (3)
GIV-Gai inh	Structure
104	O=C(Nc1ccc(F)cc1)c1cc(N2CCOCC2)nc2ccccc12
101	Cc1ccc(S(=O)(=O)NCc2ccc3c(c2)CCN3C(=O)c2ccc(F)cc2)cc1C
103	CCCCNC(=O)c1cccc(Oc2ccnc(-c3ccc(F)cc3)n2)c1

More results follow.
GIV-Gai inh	Structure
99	O=C(NCc1ccccc1)c1cc(-c2ccc(F)cc2)nc2n[nH]c(-c3ccccc3)c12
104	CCOC(=O)C1=C(C)NC2=C(C(=O)C(C(=O)OCC)C(c3ccc(OC)cc3)C2)C1c1cccs1 (stereo not given)
106	O=S1(=O)NC(c2ccccc2)Nc2ccccc21 (stereo not given)
101	O=C(CN1C(=O)C2CCCN2C(=O)c2ccc(F)cc21)NCC1CCCO1 (stereo not given)
102	Cc1cc(N2CCOCC2)n2nc(CN3CCN(C)CC3)nc2n1
98	CSc1nnc(-c2nn(C)c3c2CN(C(=O)C(C)(C)C)CC3)n1C
104	CC(=O)N1c2ccccc2N2C(c3c(C)c(C)cc(C)c3C)=NON12
107	CC12CCC(CN(CC(O)Cn3c4ccccc4c4cc(I)ccc43)C1)C2(C)C (stereo not given)
102	O=C(CCn1cnc2cc(-c3noc(Cc4ccccc4Br)n3)ccc21)N1CCCC1
103	CCOC(=O)C1CCN(CN2C(=O)C3(SCC(=O)N3c3ccc(C)c(Cl)c3)c3ccccc32)CC1 (stereo not given)
102	CCCc1oc2c(cc(NS(=O)(=O)c3ccc(F)cc3)c3ccccc32)c1C(=O)OCC
106	CCOC(=O)c1ccc(Cn2c3ccc(F)cc3c3nc4cc(F)ccc4nc32)o1

(continued)
GIV-Gai inh	Structure
106	COC(=O)C(NC(C)=O)(Nc1ccc(C)cn1)C(F)(F)F (stereo not given)
134	O=C(Nc1ccc2nnc(C3CCC3)n2c1)C1CC1
99	CCCn1nccc1-c1csc(S(=O)(=O)N2CCCC2)c1
120	O=C(NCc1ccccc1)c1cc2nc(-c3ccc4c(c3)OCO4)cc(C(F)(F)F)n2n1
105	CC(C)CNC(=O)c1cccc(-c2cc(NC3CCCCC3)ncn2)c1
103	COc1ccc(C2CC(=O)Nc3c2cc(Br)c2ccccc32)c(OC)c1OC (stereo not given)
101	O=C(NCCN1CCCC1)NC1COc2ccccc2C1 (stereo not given)
99	C=CCOc1ccc(C2CC(=O)Nc3c2cnn3-c2ccc3nnc(C)n3n2)cc1OCC (stereo not given)
113	CC(=O)c1ccc(Nc2nc(N3CCOCC3)nc(N3CCOCC3)n2)cc1
99	O=C(NCc1nc(-c2cccc(-c3ccn[nH]3)c2)no1)c1ccccc1
105	CC(=O)Nc1ccc(-n2c(/C=C/c3cccc([N+](=O)[O-])c3)nc3ccccc3c2=O)cc1
109	CCN(CC)c1ncnc2c1sc1nc(N3CCOCC3)c3c(c12)CCCC3

(next part)
GIV-Gai inh	Structure
106	COc1ccc(C2=NN3C(C2)c2cc(Cl)ccc2OC3c2cccc(OC)c2OC)cc1 (stereo not given)
107	CCC(C)NC(=O)C1CCN(C(=O)Nc2ccc(S(=O)(=O)N3CCOCC3)s2)CC1 (stereo not given)
106	O=[N+]([O-])c1ccc(C2=Nc3ccccc3C(c3ccccc3)(c3ccccc3)O2)cc1
102	COc1ccc(C2Nc3ccc(C)cc3[C@H]3OCC[C@@H]23)cc1 (stereo not given in full)
109	O=C(CSc1nc2c(sc(=S)n2CCc2ccccc2)c(=O)n1Cc1ccco1)N1CCCC1
119	COc1cc(/C=C2N=C(/C=C/c3cccc(Cl)c3Cl)OC/2=O)ccc1OC(C)=O
105	CN(Cc1ccccc1)S(=O)(=O)c1ccc2c(c1)c(=O)n(CCC(=O)N1CCCC1)c(=O)n2C
108	COc1ccc(Cl)cc1N1C(=O)C2C(c3ccccc3)OC3(C(=O)c4ccccc4C3=O)C2C1=O (stereo not given)
100	Cc1ccc2[nH]cc(CCNC(=O)c3csc(-c4ccncc4)n3)c2c1
98	CCOC(=O)C1=C(C)OC(N)=C(C#N)C1c1ccc(F)c(F)c1 (stereo not given)
112	CCOc1ccccc1NC(=O)CCSc1nc2n[nH]c(C)c2c(=N)n1-c1ccccc1Cl
108	CSc1ccc(/C=C2\C(=O)N(c3ccc(C)c(C)c3)C(c3cccc([N+](=O)[O-])c3)S2(=O)=O)cc1 (stereo not given)

Other structures.
GIV-Gai inh	Structure
117	O=C(CSc1nc2cc(C(=O)NCCCN3CCOCC3)ccc2c(=O)n1CC1CCCO1)NCCc1ccccc1 (stereo not given)
101	CCOC(=O)c1cccc(NC(=O)C2CCCN(C(=O)C3Sc4ccccc4NC3=O)C2)c1 (stereo not given)
99	Cc1cc(C)n(-c2nc3c(c(=O)n2CC(=O)Nc2cc(C)on2)CCCC3)n1
107	O=C(NC(Cc1c[nH]c2ccccc12)C(=O)Nc1ccc(Br)cc1)Oc1ccccc1 (stereo not given)
110	CC(=O)C1=NN(c2cccc(Cl)c2)C2(S1)c1ccccc1C(c1ccc(C)cc1)=NN2c1ccccc1 (stereo not given)
99	CC(c1nnc(SCC(=O)c2ccccc2)n1C)N1C(=O)COc2ccccc21 (stereo not given)
112	N#CC1(C#N)C(c2ccccc2)C(C(=O)c2ccccc2)N2c3ccccc3C=CC21 (stereo not given)
104	COc1ccc(C(C2=C(O)CC(C)(C)CC2=O)C2C(=O)CC(C)(C)CC2=O)cc1O (stereo not given)
98	CCc1ccc(CN2CCCC2c2cc(C(C)C)on2)cc1 (stereo not given)
98	COc1cccc(-n2c(=S)sc3c2nc(SCC(=O)NCc2ccco2)n2c4ccccc4nc32)c1

These rows are one share of the data. The share of hits here may be higher or lower than overall.
